EPAC1 agonist – Validation qHTS for agonist of cAMP-regulated guanine nucleotide exchange factor 3 (EPAC1) | Rap guanine nucleotide exchange factor 3 (Homo sapiens), O95398 | EPAC1 Rap1b BODIPY-GDP exchange, fluorescence | Potency, µM, for inactives: max response, positive = active, actives largely listed as activators | 16,000 tested, 1% active | AID 1645883, 2021; active = well fitted activation curve with a large enough effect; inconclusive = small, poorly fitted or top-dose-only effect; inactive = no such curve, though single readings can be large or run the other way;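 note: nearly all actives have a fitted effect of over 70% in size; series mostly up to about 76 or 150 µM; scaled to a cAMP control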
Target sequence (O95398 whole entry, looked up): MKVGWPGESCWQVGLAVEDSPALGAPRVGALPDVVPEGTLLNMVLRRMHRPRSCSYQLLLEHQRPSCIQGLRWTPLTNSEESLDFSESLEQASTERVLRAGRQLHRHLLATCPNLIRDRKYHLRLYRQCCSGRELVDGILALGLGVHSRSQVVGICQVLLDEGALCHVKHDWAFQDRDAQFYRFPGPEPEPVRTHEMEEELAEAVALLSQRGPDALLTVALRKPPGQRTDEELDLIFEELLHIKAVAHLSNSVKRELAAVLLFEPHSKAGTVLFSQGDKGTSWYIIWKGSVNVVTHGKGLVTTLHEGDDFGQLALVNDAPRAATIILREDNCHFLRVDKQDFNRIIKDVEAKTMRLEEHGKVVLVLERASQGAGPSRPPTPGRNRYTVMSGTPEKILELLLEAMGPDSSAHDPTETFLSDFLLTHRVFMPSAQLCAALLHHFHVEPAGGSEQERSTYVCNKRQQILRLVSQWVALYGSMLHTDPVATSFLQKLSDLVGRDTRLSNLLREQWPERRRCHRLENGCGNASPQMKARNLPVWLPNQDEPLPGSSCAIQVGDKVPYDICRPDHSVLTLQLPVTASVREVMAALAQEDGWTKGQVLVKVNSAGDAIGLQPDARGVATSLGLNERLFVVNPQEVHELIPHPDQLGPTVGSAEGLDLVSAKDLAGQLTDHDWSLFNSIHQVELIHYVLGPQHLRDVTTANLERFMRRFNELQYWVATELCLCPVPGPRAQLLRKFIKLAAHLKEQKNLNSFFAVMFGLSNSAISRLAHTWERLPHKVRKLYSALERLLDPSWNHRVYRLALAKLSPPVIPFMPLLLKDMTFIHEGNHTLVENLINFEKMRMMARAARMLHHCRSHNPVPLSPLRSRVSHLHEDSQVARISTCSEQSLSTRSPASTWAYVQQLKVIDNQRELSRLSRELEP
The depositor's hits bear a star; ? = inconclusive; & = joins results of further samples; [ ] = remark or other dose. % is set by controls: 0 for no effect and ±100 for the full control effect; potency is the fitted concentration of half-maximal effect. The list is partial, so the mix of outcomes need not match the whole.

A first look, three compounds:
SMILES | EPAC1 agonist
COc1ccc([C@@H]2CC(=O)c3c(O)cc(O[C@@H]4O[C@H](CO[C@@H]5O[C@@H](C)[C@H](O)[C@@H](O)[C@H]5O)[C@@H](O)[C@H](O)[C@H]4O)cc3O2)cc1O | -6%
COc1cccc(CN2CCC(n3cc(C(=O)NC4CCCC4)nn3)CC2)c1O | 0%
O=C(c1cc(O)c(O)c([N+](=O)[O-])c1)c1ccccc1F | 11%

The listing, repeating the preview:
SMILES | EPAC1 agonist
COc1ccc([C@@H]2CC(=O)c3c(O)cc(O[C@@H]4O[C@H](CO[C@@H]5O[C@@H](C)[C@H](O)[C@@H](O)[C@H]5O)[C@@H](O)[C@H](O)[C@H]4O)cc3O2)cc1O | -6%
COc1cccc(CN2CCC(n3cc(C(=O)NC4CCCC4)nn3)CC2)c1O | 0%
O=C(c1cc(O)c(O)c([N+](=O)[O-])c1)c1ccccc1F | 11%
CC(C)[C@@H]1CC[C@@H](C)C[C@H]1O | -53%[inhibitor]
C[N+](C)(CCCCCC[N+](C)(C)CCCN1C(=O)c2ccccc2C1=O)CCCN1C(=O)c2ccccc2C1=O | -7%&-24%
COc1ccccc1CNc1ncnc2ccc(-c3ccccc3C#N)cc12 | ?
Cn1cccc1C(=O)N1CCC2(CCCN(Cc3ccccc3)C2)CC1 | -2%
O=C(Nc1nccs1)[C@@H]1CC=C[C@@H]2CCN(C3CCCCC3)C(=O)[C@@H]21 | -5%
COc1ccccc1CNc1cc(-c2ccccc2Cl)ncn1 | ?
COc1ccccc1-c1nc(NCCc2cnc[nH]2)c2ccccc2n1 | -3%
CCN(CC)c1ncnc2c1ncn2[C@@H]1O[C@@H](COP(=O)(O)OP(=O)(O)C(Br)(Br)P(=O)(O)O)[C@H](O)[C@H]1O | 13%
CS(=O)(=O)N1CCC2(CC1)CN(Cc1ccccc1)C2 | -14%
Cc1cc(C(=O)NCc2nnc3n2CCN(Cc2ccc(F)cc2F)CC3)c(C)o1 | -5%
CN(C)c1ccc2ccc3cccc4ccc1c2c34 | ?
CC(=O)N[C@@H](Cc1ccc(O)cc1)C(=O)O | -19%
CN(C)c1ccc(/C=c2\[nH]c(=O)/c(=C\c3ccc(N(C)C)cc3)[nH]c2=O)cc1 | -22%
CS(=O)(=O)Nc1cccc(-c2nc(Nc3ccccc3)c3ccccc3n2)c1 | ?
CNc1ncncc1-c1c(C)noc1C | 2%
CCn1nc(C(=O)O)c(=O)c2cc3c(cc21)OCO3 | -4%&1%&-4%&5%
CC(Oc1ccccc1)C(=O)N[C@@H]1C(=O)N2[C@@H]1SC(C)(C)[C@@H]2C(=O)O (stereo partly specified) | -1%
Cc1ncc2c(c1CNS(=O)(=O)N(C)C)CCN(C(=O)/C=C/c1cccc(F)c1)C2 | 1%
Cn1c(=O)c(-c2cccs2)nc2cnc(Oc3ccccc3)nc21 | -24%
Clc1ccc2nccnc2c1 | 11%
CC(=O)NCCNc1nc(-c2ccccc2C(F)(F)F)nc2ccccc12 | 8%
CN(C)c1nc(N(C)C)nc(N(C)C)n1 | 11%&1%&6%
COc1cc([C@@H]2c3cc4c(cc3[C@@H](O[C@@H]3O[C@@H]5CO[C@@H](C)O[C@H]5[C@H](O)[C@H]3O)[C@H]3COC(=O)[C@H]23)OCO4)cc(OC)c1O | 4%
CCn1c(-c2cccnc2)nc2cc(NC(=O)COC)cc(C(=O)N3CC[C@@H]4CCCC[C@H]4C3)c21 | -16%
COc1ccccc1-c1cncnc1NCc1cccs1 | -33%[inhibitor]
CC(=O)N1CCC[C@@]2(CCN(Cc3ccc(C#N)cc3)C2)C1 | -76%[inhibitor]
COc1ncc2nc(-c3ccc(Cl)cc3)c(=O)n(CCC#N)c2n1 | -17%
COc1ccccc1CNc1ncncc1-c1cccnc1 | -30%
Cc1nc2cnc(OCc3ccccc3)nc2n(C)c1=O | ?
CC(=O)OC1CC[C@]2(C)C(CC(OC(C)=O)[C@@]3(C)C4=CC(=O)OC(c5ccoc5)[C@]4(C)CCC23)C1(C)C (stereo partly specified) | ?
CN1CCCC2(CCN(S(=O)(=O)c3ccccc3)CC2)C1 | 26%
COCCn1c(=O)c(C)nc2cnc(Oc3ccc(OC)cc3)nc21 | -9%
COc1cc(C[C@@H]2NCCc3cc(O)c(O)cc32)cc(OC)c1OC | -32%
COc1ccccc1N1CCN(CC2CN3C(=O)N(C)c4ccccc4C3=N2)CC1 (stereo unspecified) | -1%
O=C(O)[C@H](O)[C@@H](O)[C@H](O[C@@H]1O[C@H](CO)[C@H](O)[C@H](O)[C@H]1O)[C@H](O)CO | -4%
CCO[C@H]1[C@H](NC(=O)c2cccnc2)c2ccccc2C12CCN(C(=O)c1cc(C)n(C)n1)CC2 | 1%
CNCCNS(=O)(=O)c1cccc2cnccc12 | -2%&-16%

Look-ups from the results shown.
`COc1cc(C[C@@H]2NCCc3cc(O)c(O)cc32)cc(OC)c1OC` @ EPAC1 agonist: -32%
`CC(=O)NCCNc1nc(-c2ccccc2C(F)(F)F)nc2ccccc12` @ EPAC1 agonist: 8%
`O=C(O)[C@H](O)[C@@H](O)[C@H](O[C@@H]1O[C@H](CO)[C@H](O)[C@H](O)[C@H]1O)[C@H](O)CO` @ EPAC1 agonist: -4%
`CN(C)c1nc(N(C)C)nc(N(C)C)n1` @ EPAC1 agonist: 11%&1%&6%
`COc1ccccc1-c1cncnc1NCc1cccs1` @ EPAC1 agonist: -33%[inhibitor]

Next section
SMILES | EPAC1 agonist
CN(C)C(=O)c1ccc(-c2ccc3ncnc(N4CCOCC4)c3c2)cc1 | ?
COC(=O)CC1C(=O)NCCN1C(=O)CN1Cc2ccccc2OC(c2ccccc2)C1 (stereo unspecified) | -1%
NC(C(=O)N[C@@H]1C(=O)N2C(C(=O)O)=C(Cl)CS[C@H]12)c1ccccc1 (stereo partly specified) | -6%
O=c1c2ccccc2oc2ccc(-c3ccoc3)cc12 | 21%
CC1CCC2[C@](C)(CO)C(O)CC[C@]2(C)C12CCC(CO)(CCO)O2 (stereo partly specified) | -12%
C=CCN(C(C(=O)OC)C(C)C)S(=O)(=O)CCNCc1ccccc1 (stereo unspecified) | -11%
CCOC(=O)N1CCN(Cc2ccc3c(c2)CN(C(=O)c2ccc(C#CC(C)(C)O)o2)CCO3)CC1 | 0%
c1ccc(CN(CCN(Cc2ccccn2)Cc2ccccn2)Cc2ccccn2)nc1 | 15%
COc1ccc(-c2nc3cnc(Nc4ccccc4)nc3n(CCC#N)c2=O)cc1 | 112µM*
CN(C)Cc1ccccc1-c1cc(N(C)Cc2ccco2)ncn1 | 5%
O=C(O)CCC/C=C\C[C@@H]1[C@@H](/C=C/[C@@H](O)COc2cccc(C(F)(F)F)c2)[C@H](O)C[C@@H]1O | 2%
CC(C)NC(=O)N1CCCC2(CCN(S(=O)(=O)c3ccccc3)CC2)C1 | -46%[inhibitor]
COc1ccc(C2Sc3ccccc3N(CCN(C)C)C(=O)[C@@H]2OC(C)=O)cc1 (stereo partly specified) | -11%&-20%
CN(C)Cc1ccccc1-c1nc(NC2CC2)c2ccccc2n1 | -16%
CC1(C)S[C@@H]2[C@H](NC(=O)[C@@H](NC(=O)N3CCNC3=O)c3ccccc3)C(=O)N2[C@H]1C(=O)O | -9%
COc1ccccc1CNc1cc(-c2ccccc2C(F)(F)F)ncn1 | 13%
COc1ccc(CNc2nc(-c3cccc(C#N)c3)nc3ccccc23)c(OC)c1 | ?
CC(COc1ccc(/C=C/c2ccccc2)cc1)[N+](C)(C)C (stereo unspecified) | 8%
CCCCCCCCCCCCCCCCCCc1ccc(C(=O)/C=C/C(=O)O)cc1 | -4%
CS(=O)(=O)Nc1cccc(-c2nc(-n3ccnc3)c3ccccc3n2)c1 | -75%[inhibitor]

Fetched one by one from the entries so far (7):
SMILES | EPAC1 agonist
CC(C)NC(=O)N1CCCC2(CCN(S(=O)(=O)c3ccccc3)CC2)C1 | -46%[inhibitor]
Cn1c(=O)c(-c2cccs2)nc2cnc(Oc3ccccc3)nc21 | -24%
CC(COc1ccc(/C=C/c2ccccc2)cc1)[N+](C)(C)C (stereo unspecified) | 8%
CN(C)c1ccc(/C=c2\[nH]c(=O)/c(=C\c3ccc(N(C)C)cc3)[nH]c2=O)cc1 | -22%
COc1ccc(C2Sc3ccccc3N(CCN(C)C)C(=O)[C@@H]2OC(C)=O)cc1 (stereo partly specified) | -11%&-20%
COc1ccccc1-c1cncnc1NCc1cccs1 | -33%[inhibitor]
COc1ccc(CNc2nc(-c3cccc(C#N)c3)nc3ccccc23)c(OC)c1 | ?

A draw from above in order of SMILES length, highest first:
SMILES | EPAC1 agonist
CCOC(=O)N1CCN(Cc2ccc3c(c2)CN(C(=O)c2ccc(C#CC(C)(C)O)o2)CCO3)CC1 | 0%
COc1ccc(C2Sc3ccccc3N(CCN(C)C)C(=O)[C@@H]2OC(C)=O)cc1 (stereo partly specified) | -11%&-20%
COc1ccc(CNc2nc(-c3cccc(C#N)c3)nc3ccccc23)c(OC)c1 | ?

Next entries follow:
SMILES | EPAC1 agonist
CC(=O)Nc1c(I)c(NC(C)=O)c(I)c(C(=O)O)c1I | 14%
COc1ccc(CN2[C@@H](CC(=O)O)c3cc(F)ccc3S2(=O)=O)cc1 | ?
O=C(O)c1ccccn1 | -6%
Nc1nc2ncc(CNc3ccc(C(=O)N[C@@H](CCC(=O)O)C(=O)O)cc3)nc2c(=O)[nH]1 | 5%&-26%
C[N+]1(CC(=O)c2ccc(F)cc2)CCc2ccccc2C1 (stereo unspecified) | 25%
O=c1c(O)c(-c2ccc(O)cc2)oc2ccccc12 | -32%[inhibitor]
CCC(c1ccccc1)c1noc(CCN(CC)CC)n1 (stereo unspecified) | ?
COCCn1c(=O)cnc2cnc(OCc3ccccc3)nc21 | -94%[inhibitor]
C[N+](C)(CCCCCC[N+](C)(C)CCCN1C(=O)c2cccc3cccc(c23)C1=O)CCCN1C(=O)c2cccc3cccc(c23)C1=O | -5%
COc1ccc(-n2c(=O)c(CCc3ccccc3)nc3cnc(N4CCOCC4)nc32)cc1 | -5%
CCCCCCCCCCCCCCCCCC(=O)NCC(COP(=O)([O-])OCC[N+](C)(C)C)OCC (stereo unspecified) | -33%[inhibitor]
CCOC(=O)C(Cc1ccc(O)cc1)NC(C)=O (stereo unspecified) | -14%
CN1C2CC(OC(=O)C(CO)c3ccccc3)C[C@@H]1[C@H]1OC21 (stereo partly specified) | 4%
O=S(=O)(c1ccccc1)N1CCC2(CCN(c3ccccc3)CC2)CC1 | -5%
COc1cc2cc(Oc3ccc4ccc(=O)oc4c3)c(=O)oc2cc1O | ?
O=C(NCc1ccncc1)c1cnn(-c2nccc(-c3cccs3)n2)c1C1CC1 | -6%
C=C(C(=O)O)[C@@H]1CC[C@@]2(C)CCC[C@](C)(O)[C@@H]2C1 | 1%
Cc1nc2cnc(N(C)C)nc2n(Cc2ccc(F)cc2)c1=O | -75%[inhibitor]
C=C[C@](C)(O)CCC1C(=C)CC(OC(C)=O)C2C(C)(C)CCCC12C (stereo partly specified) | -116%[inhibitor]
Cc1nc2cnc(N3CCOCC3)nc2n(C[C@H]2CCCO2)c1=O | -41%[inhibitor]
O=C1CCN(Cc2ccc(O)cc2)CCN1[C@H](CO)c1ccccc1 | ?
CCN(CC)CCOC(=O)C(c1ccccc1)C1CCCCC1 (stereo unspecified) | 17%
O=C(c1ccncc1)N1CCC2(CCN(Cc3ccncc3)CC2)CC1 | -32%[inhibitor]
NC1CONC1=O (stereo unspecified) | -2%&15%
O=C(O)C1=CCCN(CCON=C(c2ccccc2)c2ccccc2)C1 | -4%&-9%&6%
O=c1c(O)cccc2cc(O)c(O)c(O)c12 | -9%
CC#C[C@]1(O)CC[C@H]2[C@@H]3CCC4=CC(=O)CCC4=C3[C@@H](c3ccc(N(C)C)cc3)C[C@@]21C | 20%&15%
COc1cccc(-n2c(SC)nnc2C2CCN(Cc3nc4ccccc4s3)CC2)c1 | -3%
C=CCc1ccc(OC(=O)c2ccccc2)c(OC)c1 | 30%
CN(C)C(=O)c1ccc(-c2nc(Nc3ccncc3)c3ccccc3n2)cc1 | ?
COc1ccc(S(=O)(=O)NCc2nc(N3CCCC3)c3cccc(C)c3n2)cc1OC | 6%
Cc1ccsc1C(=O)N(Cc1cc2cc3c(cc2nc1N1CCOCC1)CCC3)CC1CCCO1 (stereo unspecified) | -6%
C[C@H](CC[C@@H]1OC1(C)C)C1CC[C@H]2[C@@H]3CC=C4C[C@@H](O)CC[C@]4(C)[C@H]3CC[C@]12C (stereo partly specified) | -6%
COc1cc2nc(N3CCCC(O)C3)c(CNCc3ccccc3C(F)(F)F)cc2c(OC)c1OC (stereo unspecified) | -4%
Cc1ccc(O)c2ncccc12 | 20%
C[C@@H](NC(=O)/C(C#N)=C/c1ccc(O)c(O)c1)c1ccccc1 | -6%&-16%
COc1cc(C(=O)N2CCCCCCC2)cc(OC)c1OC | -1%
Cc1ncoc1C(=O)N1CCOc2ccc(CN3CCN(c4ccccn4)CC3)cc2C1 | -5%
O=C(O)/C=C/c1ccccc1 | -7%
CC(C)C(N)C(=O)NC(Cc1c[nH]c2ccccc12)C(=O)O (stereo unspecified) | ?
COc1cccc(Cn2c(=O)cnc3cnc(Oc4cccc(Cl)c4)nc32)c1 | -9%
COC(=O)[C@]1(C)CCC[C@]2(C)c3ccc(C(C)C)cc3C(=O)CC12 (stereo partly specified) | 24%
CC(=O)OC1CCC2(C)C3=C(CCC2C1(C)C)[C@]1(C)CCC(C(C)CCC=C(C)C)[C@]1(C)CC3 (stereo partly specified) | 1%
CCCCN1CC[C@H]2C=CC[C@@H](C(=O)NCc3cccnc3)[C@H]2C1=O | ?
CNc1nc(-c2ccc3c(c2)OCO3)nc2ccccc12 | -21%
O=c1c(-c2cc(F)cc(F)c2)nc2cnc(Oc3ccccc3)nc2n1C[C@H]1CCCO1 | -27%
CC(C)Oc1ccc2c(=O)c3cc(C(=O)O)ccc3oc2c1 | -38%[inhibitor]
Cc1cc2c(cc1C)N[C@]1(C[C@H]3CCCC(=O)N4CC[C@@H](C1)[C@@H]34)C(=NC(C)(C)CC(C)(C)C)N2 | -160%[inhibitor]
O=C(N[C@H]1CCC(=O)N([C@H](CSc2ccc(Br)cc2)Cc2ccccc2)CC1)OCc1ccccc1 | ?
O=C(OCCOCCO)c1ccccc1Nc1cccc(C(F)(F)F)c1 | -8%

Source: PubChem
